Vaccinia mCherry = qHTS for Stage-Specific Inhibitors of Vaccinia Orthopoxvirus: mCherry Reporter Primary qHTS; Vaccinia virus mCherry reporter infection, fluorescence; about a quarter of the inactives have no number; Potency, µM (highest dose often 36.5 µM), for the others: at the top dose activity change, negative = inhibition, hits mostly inhibitors; actives 0.63% (n = 310,000); active = well fitted inhibition curve with a large enough effect; inconclusive = small, poorly fitted or top-dose-only effect; inactive = no such curve, though single readings can be large or run the other way; tested in A549 cells; further: nearly all actives have a fitted effect of over 35% in size; inactives centre near -10
Vaccinia Venus = qHTS for Stage-Specific Inhibitors of Vaccinia Orthopoxvirus: Venus Reporter Primary qHTS; Vaccinia virus Venus reporter expression, fluorescence; Potency, µM (highest dose often 36.5 µM), for the others: at the top dose activity change, negative = inhibition, hits mostly inhibitors; actives 0.46% (n = 330,000); AID 720580, 2013; active means well fitted inhibition curve with a large enough effect; inconclusive means small, poorly fitted or top-dose-only effect; inactive means no such curve, though single readings can be large or run the other way; tested in A549 cells; further: nearly all actives have a fitted effect of over 30% in size; inactives centre near -10
* hit, by the source's call; i = inactive; ? = inconclusive; / = not tested or not shown; & = joins results of further samples; [ ] = remark or other dose. On the % scale 0 is the no-effect control and ±100 the full control effect; potency means the concentration at half of the fitted maximal effect.

SMILES | Vaccinia mCherry | Vaccinia Venus
CCOCCc1nn2c(=O)cc(COC(=O)c3ccco3)nc2s1 | -0.6% | -4.9%
CCc1ccccc1Nc1ncnc2c1cnn2-c1ccc(C)cc1C | -7.8% | -1.7%
CC(C(=O)Nc1ccc(F)c(Cl)c1)N1Cc2ccccc2C1=O (stereo unspecified) | -14.9% | -9.0%
CCCn1nnc(NC(=O)Cc2ccccc2)n1 | -2.4% | 8.5%
COC(=O)Nc1ccc(N=C(N)N[N+](=O)[O-])cc1 | -14.7% | -9.5%
Cc1ccc(S(=O)(=O)CCC(=O)Nc2ccc(F)cc2)cc1 | i | -18.2%
CCOc1ccc(NC(=O)c2nnn(CC(=O)Nc3ccccc3OC)c2N)cc1 | -12.9% | -8.5%
Cc1ccn2cc(-c3cccc(S(=O)(=O)N4CCCCC4)c3)nc2c1 | -1.2% | -17.6%
COc1ccc(S(=O)(=O)N2CCN(C(=O)[C@@H]3CCCN3C(=O)c3cccs3)CC2)cc1 | -9.3% | -20.5%
Cc1ccc(C(=O)NC(C)c2ccccc2)cc1S(=O)(=O)N1CCOCC1 (stereo unspecified) | -11.1% | -5.8%
O=C1CCCC(O)=C1C=NCCc1ccccc1 | / | -12.7%
COc1ccc(-n2nnnc2SCC(=O)Nc2ccccc2N2CCOCC2)cc1 | i | -2.4%
CCN1/C(=C2/SC(=S)N(C)C2=O)C=Cc2cc(C)ccc21 | i | -5.5%
O[Si](CCCN1CCCCC1)(c1ccc(F)cc1)C1CCCCC1 (stereo unspecified) | -22.3% | -14.5%
CCn1c(=O)cc(SCC(=O)NCCc2ccc(Cl)cc2)c2ccccc21 | -6.8% | 3.0%
CCOC(=O)c1c(-c2ccccc2Cl)csc1NC(=O)CSc1nc(C)cc(=O)[nH]1 | i | -9.8%
COc1cccc(OC)c1C(=O)Nc1sc2c(c1C(N)=O)CCN(Cc1ccccc1)C2 | i | -10.8%
Cc1ccc(CN2CC(C(=O)Nc3ccccc3N3CCCC3)CC2=O)cc1 (stereo unspecified) | ? | -4.4%
COc1ccccc1OCC(=O)NNC(=S)NC(=O)c1ccco1 | / | -20.4%
Cc1cn([C@H]2C[C@H](O)[C@@H](CNC=O)O2)c(=O)[nH]c1=O | -4.7% | -4.6%
O=C(Nc1nnc(-c2cccs2)o1)c1ccco1 | i | -9.9%
CC(=O)c1ccc(NC(=O)c2ccc(COc3ccccc3[N+](=O)[O-])o2)cc1 | -3.5% | -21.3%
COc1ccccc1CNc1nc(NC(C)C)nc2ccsc12 | -17.5% | -28.9%
CCc1ccc2[nH]c(=O)c(C(c3nnnn3CCOC)N3CCN(c4ccccc4F)CC3)cc2c1 (stereo unspecified) | / | ?
COC(=O)c1cc(C(=O)OC)cc(N2C(=O)CC(NNC(=O)c3ccccc3Cl)C2=O)c1 (stereo unspecified) | -5.9% | -2.5%
C=CC[C@H](CC(=O)OC(C)(C)C)C(=O)OC[C@H]1CCCN1C(=O)[C@H](CC=C)CC(=O)N(CCO)Cc1ccccc1 | -18.0% | -21.8%
O=C(CN(Cc1ccc2c(c1)OCO2)C(=O)c1cnsn1)NC1CCCC1 | / | -20.8%
O=C(CCC(=O)Nc1nnc(C2CCCCC2)s1)NCc1cccs1 | -2.0% | -13.3%
COc1cc(C(=O)NCC(c2cccs2)S(=O)(=O)c2ccc(F)cc2)cc(OC)c1OC (stereo unspecified) | -5.1% | -5.0%
COc1ccc(CN2CCNC(=O)C2CC(=O)N(C)C2CCOCC2)c(F)c1 (stereo unspecified) | -11.5% | -2.1%
CC(Oc1cccc(Cl)c1)C(=O)Nc1cc(S(=O)(=O)N2CCCCC2)ccc1N1CCOCC1 (stereo unspecified) | i | -9.2%
COc1ccc2oc(C(F)(F)C(F)(F)F)cc(=O)c2c1 | -5.5% | -0.1%
Cc1ccc(NC(=O)Cc2ccc(-c3ccccc3)cc2)nc1 | -13.1% | -3.5%
Cc1cc(C)c(S(=O)(=O)NCC(=O)NCc2ccccn2)c(C)c1 | -15.9% | -9.1%
CCOC(=O)/C=C/C(=O)Nc1ccc(Oc2ccccc2)cc1 | -23.2% | -10.5%
COc1ccc(OC)c(NC(=O)COC(=O)CCCN2C(=O)c3ccccc3C2=O)c1 | -7.2% | -2.7%
COc1ccc(NC(=S)N2CCC(c3nc4ccccc4o3)CC2)c(OC)c1 | i | 2.6%
Cc1nc2ncnn2c(C)c1Cc1cccc(C(F)(F)F)c1 | i | -18.1%
COc1ccc(NC(=O)NCCc2c(C)nn(C)c2C)c(OC)c1 | -11.9% | -3.2%
CC(C)C(=O)Nc1cccc(C(=O)Nc2nnc(C(C)(C)C)s2)c1 | / | -8.4%
N#Cc1ccc(-c2nc3ccc(Br)cn3c2Cc2ccsc2)cc1 | 8.5% | -2.7%
O=C(N/N=C/c1ccccc1OC(=O)N1CCOCC1)c1cccs1 | -2.0% | -11.5%
O=c1c2ccccc2oc2cc(OCc3cccc(F)c3)cc(O)c12 | 1.6% | -5.2%
COCCNC(=O)Cn1c(-c2cccs2)cc2cc(Cl)ccc21 | -12.2% | -16.1%
O=C(CSC1=NS(=O)(=O)c2cc(F)ccc2N1)NCc1ccccc1Cl | i | -15.8%
NC(=O)C1CCCN(C(=O)c2ccc(NC(=O)c3cccs3)cc2)C1 (stereo unspecified) | i | -11.3%
CC1(C(=O)NS(=O)(=O)c2ccccc2Cl)CCN1C(=O)C1(c2ccc(Cl)cc2)CCC1 (stereo unspecified) | -7.8% | 7.3%
CCc1ccc(NC(=O)COC(=O)CCCC2=NS(=O)(=O)c3ccccc3N2)cc1 | -1.7% | -7.2%&-9.8%
CCC1(c2ccccc2)SC(N)=NC1=O (stereo unspecified) | i | -4.5%
COCCn1nnnc1C(c1ccc(OC)cc1OC)N1CCN(c2ccccc2)CC1 (stereo unspecified) | / | ?
COc1ccc2[nH]c(C(=O)NCc3ccccc3)cc2c1 | -6.4% | -15.4%
COc1ccc(N=Cc2c[nH][nH]c2=O)cc1 | -16.5% | -11.9%
CC(=O)Nc1ccc(S(=O)(=O)NC2CCCCCC2)cc1 | -27.2% | -15.0%
O=C1CC2(CCN(C(=O)COc3ccccc3)CC2)Oc2ccccc21 | 0.8% | -8.4%
COc1cc(OC)cc(C(=O)NNC(=S)NC2CC2)c1 | -13.1% | -8.0%
COc1ccc(CC(NC(C)=O)C(=O)NC2CCN(c3nc(C)cc(C)c3C#N)CC2)c(OC)c1 (stereo unspecified) | -14.4% | -14.2%
COc1ccc(C(C)=O)cc1CC1(C)C(=O)Nc2ccc(-c3ccccc3OC)cc21 (stereo unspecified) | -22.7% | -12.2%
COCCCNC(CC(=O)Nc1cc(C)cc(C)c1)C(=O)O (stereo unspecified) | -8.9% | -10.5%
O=C(NCCCN1CCN(CCCNC(=O)c2cccc(Cl)c2)CC1)c1cccc(Cl)c1 | -22.4% | -9.3%
CC(C)c1ccccc1OCC(=O)NCC(c1cccs1)N1CCOCC1 (stereo unspecified) | / | ?
The results go on.
SMILES | Vaccinia mCherry | Vaccinia Venus
Cc1cc(C)nc(SCC(=O)c2ccc3c(c2)OCCO3)n1 | i | -14.5%
COc1ccccc1NC(=O)COc1ccccc1C(=O)Nc1ccccc1 | -12.0% | 2.0%&-12.2%
O=C(O)COc1ccccc1/C=N/NC(=O)Cc1csc(Nc2cccc(C(F)(F)F)c2)n1 | ? | -8.9%
COc1ccccc1CNC(=O)C(CCSC)NS(=O)(=O)c1ccc2c(c1)oc(=O)n2C (stereo unspecified) | / | -10.4%
O=S(=O)(Nc1nc2ccccc2nc1NCC1CCCO1)c1ccc(F)cc1 (stereo unspecified) | -10.5% | -7.5%
O=C(CCCN1CCN(c2ccccc2)CC1)c1ccc(F)cc1 | i | -13.3%
C/C=C1/C[N+]2(C)CCC34C(=C(C=O)[C@H]1C[C@@H]32)Nc1ccccc14 (stereo partly specified) | -15.5% | -10.5%
CCNC(=O)/C(C#N)=C/c1c(N2CCN(Cc3ccc4c(c3)OCO4)CC2)nc2c(C)cccn2c1=O | 0.1% | -12.9%
O=C(NCc1ccccc1F)C1CCN(C(=O)Nc2ccc(F)cc2)CC1 | 10.0% | -6.5%
CCO[C@@H]1OC(C(N)=O)=C[C@H](c2ccc(Br)cc2)[C@H]1CCCO | i | -9.4%
O=C(NCc1cccnc1)c1ccc2c(c1)N(Cc1ccccc1)CCS2 | -18.9% | -12.4%
Fc1c(F)c(F)c(/C=N/NC(=S)Nc2cccnc2)c(F)c1F | -2.1% | -24.5%
COc1ccc(CN2Cc3cnnn3-c3ccccc3C2C#N)cc1 (stereo unspecified) | ? | -15.9%
CC1(C)CC(=O)C=C(Nc2ccccc2F)C1 | / | -37.9%
CCc1ccccc1NC(=O)N1CCC(CN2CCc3ccccc3C2)CC1 | -15.2% | -11.3%
CC1(C)CC(CC(=O)O)(c2ccccc2)CCO1 (stereo unspecified) | / | -2.4%
Clc1ccccc1COc1ccc(/C=N/n2cnnc2)cc1 | -13.3% | -5.7%
Cc1ccc(-n2nc(C)c(C(=O)NCCCN3CCN(c4ccccc4F)CC3)c2-n2cccc2)cc1 | ? | -28.6%
COc1cccc(NC(=O)Cn2nc3c4ccccc4n(Cc4cccc(F)c4)cc-3c2=O)c1 | -5.3% | -13.4%
COc1ccc(/C(C)=N/NC(=O)c2ccc(N(C)C)cc2)cc1 | -20.0% | -9.5%
CCOc1ccccc1NC(=O)c1c(NCc2cccs2)sc2c1CCC(C)C2 (stereo unspecified) | -14.8% | -1.8%
O=C(CCCCCNS(=O)(=O)c1ccc(Br)cc1)NCCN1CCOCC1 | -13.0% | -13.9%
Cc1ccc(-c2cc(C(=O)NCc3ccccc3Cl)c3ccccc3n2)cc1C | -19.3% | -9.6%
O=C(CSc1ccsc1[N+](=O)[O-])N1CCN(c2ccccc2)CC1 | ? | -19.4%
CCCN(CCC)C(=O)Cn1c(SCc2cccc(C(F)(F)F)c2)nc2cccnc21 | -10.9% | -7.4%
NC(=O)c1ccc[n+](Cc2ccccc2)c1 | i | 0.1%
CC(C)Cn1c(=O)c2ccccc2n2c(CCC(=O)NCc3ccccn3)nnc12 | -13.9% | -4.2%
COCCNC(=O)CSc1nc2ccccc2c(=O)n1CCC(=O)N1CCN(c2ccccc2)CC1 | -1.7% | -5.5%
CCCc1nnc(N2C(=O)c3oc4ccc(F)cc4c(=O)c3C2c2ccc(C(=O)OC)cc2)s1 (stereo unspecified) | -3.1% | -2.1%
Cc1nc2ccccn2c1/C(O)=C1\C(=O)C(=O)N(CCN2CCOCC2)C1c1ccncc1 (stereo unspecified) | -8.0%[1.46 µM] | -14.2%

Profiles, looked up by structure. Screens in order: Vaccinia mCherry	Vaccinia Venus
`O=C(NCCCN1CCN(CCCNC(=O)c2cccc(Cl)c2)CC1)c1cccc(Cl)c1` across the screens: -22.4%	-9.3%
`CC1(C(=O)NS(=O)(=O)c2ccccc2Cl)CCN1C(=O)C1(c2ccc(Cl)cc2)CCC1` (stereo unspecified) across the screens: -7.8%	7.3%

The listing picks up with the 4 entries that preceded the break.
SMILES | Vaccinia mCherry | Vaccinia Venus
CC(C)Cn1c(=O)c2ccccc2n2c(CCC(=O)NCc3ccccn3)nnc12 | -13.9% | -4.2%
COCCNC(=O)CSc1nc2ccccc2c(=O)n1CCC(=O)N1CCN(c2ccccc2)CC1 | -1.7% | -5.5%
CCCc1nnc(N2C(=O)c3oc4ccc(F)cc4c(=O)c3C2c2ccc(C(=O)OC)cc2)s1 (stereo unspecified) | -3.1% | -2.1%
Cc1nc2ccccn2c1/C(O)=C1\C(=O)C(=O)N(CCN2CCOCC2)C1c1ccncc1 (stereo unspecified) | -8.0%[1.46 µM] | -14.2%
CC(=O)c1c(N2CCOCC2)nc2ccc(Cl)cc2c1-c1ccccc1 | -5.9%[7.34 µM] | -8.3%[7.34 µM]
CCOc1ccc(C(=O)Nc2ccc3nc(SCC(=O)N4CCCC4)sc3c2)cc1 | ? | ?
COc1ccc(CC(=O)NC(c2ccccc2)c2ccccc2)cc1S(=O)(=O)N1CCOCC1 | -23.7% | -17.5%
O=C(CCn1cnc2onc(-c3ccc(F)cc3)c2c1=O)N1CCN(c2ccccc2)CC1 | -4.2% | -1.0%
O=C(CN1CCCN(S(=O)(=O)c2ccc(F)cc2)CC1)Nc1c(Cl)cccc1Cl | -9.8% | -15.1%
O=C(NCCCn1ccnc1)C(=O)NCC(c1ccco1)N1CCN(c2ccccc2)CC1 (stereo unspecified) | -0.8% | 0.0%
NC1=NC(=O)N2CC12 (stereo unspecified) | -11.2% | -8.1%
COC(=O)c1ccc(Cn2c(O)c(N=O)c3ccccc32)o1 | -4.6% | -1.0%
O=C(NCCc1ccccc1)c1ccccc1SCC(=O)N1CCCC1 | -13.0% | -9.5%
COc1ccc(Cl)cc1N=Cc1c(O)n(C)c(=O)n(C)c1=O | -15.2% | -9.2%
Clc1ccccc1Cn1nnc(-c2ccccc2)n1 | i | 1.0%
O=C(CN1CCN(S(=O)(=O)c2ccc(Br)cc2)CC1)N/N=C/c1ccc(Cl)c([N+](=O)[O-])c1 | -20.0% | -19.9%
Cc1ccc(S(=O)(=O)NNC(=O)Nc2cccc3ccccc23)cc1 | i | -11.6%
COc1ccc(COCC(O)CN2CCC(CN3C(=O)c4cccc5cccc(c45)C3=O)CC2)cc1OC (stereo unspecified) | -27.6% | ?
CCOC(=O)c1ccccc1NC(=O)COC(=O)Cc1ccccc1F | -8.2% | 3.0%
CCCC(=O)NC(=S)Nc1ccccc1F | / | ?
CCN(CC)C(=O)CC(c1ccc2c(c1)OCO2)c1c(OC)cc(OC)c2c(-c3ccccc3)cc(=O)oc12 (stereo unspecified) | -1.4% | -9.8%
COc1ccccc1-n1c(-c2ccccc2Br)nc2ccccc2c1=O | 12.4% | -4.8%

This is a random part of the collection; 0.87% or so of the library scored in one or more.
